Source: PubChem (several laboratories)
P. falciparum M1AAP: P. falciparum M1AAP inhibitors, biochemical, fluorogenic H-Leu-NHMec substrate, 1536-well (AID 1445); 220,000 compounds, 0.42% hits; inhibition, % at 30 µM, or IC50 in µM where a hit was titrated; recombinant M1AAP, H-Leu-NHMec fluorogenic kinetic assay; higher % means a stronger effect;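 active = primary inhibition above the hit cutoff, then over 50% inhibition at one or more dose response concentrations, cut at about 23% in these data, passing the limit was not always enough; inconclusive = conflicting primary data, or primary hits not chosen for dose response; inactive = low primary inhibition, or under 50% at every dose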;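 also: plate controls were DMSO full reaction for no effect and no enzyme background for full effect; strong numbers were not always called active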
Dynein transport: blocks dynein driven cargo transport along microtubules; 3617.4 mouse cells, GR-EGFP nuclear translocation imaging; test concentration mostly 20 µM; stimulated with dexamethasone, 1 µM; stronger effect = lower value; 220,000 compounds, 0.47% hits; z-score, hits read low; AID 1381;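 active = plate z-score of nuclear minus cytoplasmic receptor signal below a set negative limit, without overly bright fluorescence or cell loss, cut at about -3.5 in these data, passing the limit was not always enough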;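 also: z-score of nuclear minus cytoplasmic ring GR-EGFP intensity difference per well; some compounds called inactive have numbers as strong as hits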
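Medium: Induction medium lacking tetracycline, stripped serum | Probe or stimulus: 1.0 µM final dexamethasone stimulus | Schedule: 48 h induction, then 1 h compound, then 30 min agonist, 37 °C | Signal: Automated 10x imaging of fixed Hoechst-stained cells | Evaluation: Per-cell GR-EGFP intensity, nucleus versus surrounding cytoplasmic ring, well-averaged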
KOR agonists: KOR agonists, beta-arrestin recruitment, primary screen, cell-based, luminescence, uHTS (AID 1777); KOR beta-arrestin recruitment, luminescence; higher % means a stronger effect; one-dose activation, % at 10 µM; EC50 in µM for titrated hits; 280,000 compounds, 0.02% hits; in the data active = activation above about 50%, passing the limit was not always enough; also: a part of the inactive calls stands beside numbers as strong as those of hits
GPR55 beta-arrestin: selective activators of receptor GPR55 – imaging, U2OS cells, beta-arrestin-GFP redistribution, primary screen (AID 1961) | 290,000 compounds, 0.048% hits | activation, % at 10 µM, or EC50 in µM where a hit was titrated | U2OS GPR55 beta-arrestin-GFP redistribution imaging; higher % means a stronger effect;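 active = activation above 40% with more than 50 cells counted in the well; inconclusive = wells holding fewer than 50 cells, flagged as toxic or sparse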;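 also: U2OS osteosarcoma cells stably expressing GPR55 and beta-arrestin-GFP; plate controls were DMSO negative control for no effect and LPI positive control for full effect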
M17LAP inhibition: P. falciparum M17LAP inhibitors, primary screen, biochemical, fluorogenic H-Leu-NHMec substrate, 1536-well (AID 1619); 220,000 compounds, 0.38% hits; recombinant M17LAP, H-Leu-NHMec fluorogenic kinetic assay; higher % means a stronger effect; inhibition, % at 30 µM; hits with a dose series show IC50 in µM;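 active = compound inhibiting the enzyme by more than half at any dose during confirmatory dose-response retesting; inconclusive = strong single-dose inhibitors picked by rank but not retested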;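 also: plate controls were full reaction with DMSO carrier for no effect and no enzyme background for full effect; strong numbers were not always called active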
AID2073: inhibitors of Mint1-CaV2.2 protein interaction, biochemical, HTRF (AID 2073) | HTRF protein-protein interaction, Mint1-CaV2.2; higher % means a stronger effect | inhibition, % at 20 µM; hits with a dose series show IC50 in µM | 290,000 compounds, 0.19% hits; in the data active = inhibition mostly above about 51%, no sharp cut-off; inconclusive = no clear call, values can overlap the other calls; inactive = mostly below about 53%; also: some results filed as inactive read as strong as hits
Dynein transport cytoplasmic EGFP: second read-out of Dynein transport, no call of its own (marks repeat the call); z-score; measured here: cytoplasmic GR-EGFP intensity; stronger effect = higher value
Dynein transport nuclear GR-EGFP: second read-out of Dynein transport, no call of its own (marks repeat the call); z-score; measured here: nuclear GR-EGFP intensity;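 lower value marks the stronger effect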
Dynein transport cell count: recorded beside Dynein transport, whose call it bears; z-score; measured here: cell count per field
Active calls of the source: *; u = inconclusive; x = no result given.

SMILES	P. falciparum M1AAP	Dynein transport	Dynein transport cytoplasmic EGFP	Dynein transport nuclear GR-EGFP	Dynein transport cell count	KOR agonists	GPR55 beta-arrestin	M17LAP inhibition	AID2073
CC(C)Sc1nc(O)c(Cc2ccccc2)c(=O)[nH]1	-1%	-0.26	-0.15	0.21	0.26	-1.8%	0.0%	2%	5%
CN1CCN(NC(=O)c2ccc(F)cc2)CC1	-4%	0.21	-0.13	0.78	0.34	5.1%	0.2%	4%	-2%
CCN=C1S/C(=C\c2ccc(Sc3ccc(Cl)cc3)o2)C(=O)N1CC	4%	-0.37	-0.26	-0.05	-0.9	15%	-0.1%	12%	-1%
COc1ccc(C(=O)Nc2n[nH]c(-c3ccncc3)n2)cc1	-7%	-0.47	-0.21	0.11	0.94	3.8%	0.0%	-3%	-6%
CC(=O)c1ccc(NC(=O)Cn2nc(C)cc2C)cc1	-1%	-0.89	0.49	-0.47	1.1	1.6%	-0.1%	-3%	-9%
CCC(=O)Nc1ccc(/C(C)=N\NC(=O)c2ccc(C)s2)cc1	0%	-0.79	-0.14	-0.85	-0.036	4.3%	0.0%	8%	2%
CCOC(=O)Cn1nc(C)c2c1CCCC2=O	-2%	1.2	-0.24	-0.6	-0.16	4.3%	0.0%	-1%	2%
Cc1ccc(Cn2c(C)cc3c(c2=O)C(c2cccs2)C(C#N)=C(N)O3)cc1 (stereo unspecified)	-1%	-0.52	-0.2	-0.37	0.35	-1.7%	0.0%	5%	14%
CCn1ncc(C(=O)Nc2cc(C)on2)c1C	6%	0.32	-0.2	0.86	0.052	0.7%	-0.1%	-12%	4%
CC(NC(=O)c1ccccc1F)C(=O)O (stereo unspecified)	3%	0.49	-0.23	-0.7	0.18	1.0%	0.0%	-5%	-2%
O=C(/C=C/c1cccc([N+](=O)[O-])c1)NCCN1CCOCC1	6%	1.1	-0.16	0.77	0.1	0.6%	0.2%	-9%	16%
O=C(CSc1nc2ccccc2c(=O)n1-c1ccc(Cl)cc1)c1ccco1	9%	0.19	-0.37	0.25	0.065	2.9%	-0.1%	7%	10%
COc1ccc(-c2nc(CS(=O)(=O)CC(=O)NCCc3cc(OC)ccc3OC)c(C)o2)cc1	4%	0.35	-0.18	0.49	0.054	0.6%	0.0%	-16%	1%
COc1cc(OC)nc(Oc2ccccc2C(=O)Oc2cccc(C)c2)n1	-2%	-0.26	-0.22	-0.77	0.98	1.4%	0.4%	-1%	20%
Cc1cc2c(ncn2Cc2ccccc2)c([N+](=O)[O-])c1C	-15%	x	x	x	x	2.2%	0.0%	25%	3%
CC(=O)n1cc(/C=N/NC(=O)c2sc(C)nc2C)c2ccccc21	16%	0.7	0.15	-0.14	-1.4	0.0%	-0.1%	-4%	2%
COc1ccc(C2C(=O)N(C3CCCCC3)CC(=O)N2CC2COc3ccccc3O2)cc1 (stereo unspecified)	-2%	0.016	-0.11	0.53	-0.36	15%	0.2%	-2%	4%
C=C(C)C1CC=C(C)/C(=N\NC(=O)CNc2ccccc2OC)C1 (stereo unspecified)	3%	-0.79	-0.27	-0.31	0.69	3.5%	1.1%	10%	1%
COC(Cc1n[nH]c(=S)n1-c1ccc(Cl)cc1)OC	-2%	0.7	-0.19	0.14	-0.84	-3.6%	0.2%	-2%	-24%
CCC(=O)N1CCc2cc(S(=O)(=O)NC(C(=O)NCc3ccc(F)cc3)C(C)C)ccc21 (stereo unspecified)	-1%	1.2	-0.036	0.67	-0.69	7.7%	-0.1%	6%	-11%
CCNC(=O)CN1c2cccc3cccc(c23)S1(=O)=O	0%	-0.85	-0.19	0.21	0.052	-0.1%	-0.1%	-20%	u
COc1ccc(-c2c(C(C)=O)c(C)nc3sc4c(c23)NC(c2ccccc2)NC4=O)cc1 (stereo unspecified)	-2%	0.095	0.34	0.8	1.1	-1.7%	-0.1%	-23%	u
Cc1ccc(OCC(=O)c2c(O)c3ccccc3oc2=O)cc1C	4%	0.43	-0.27	-0.7	0.55	-4.6%	0.6%	23%	-1%
CCOc1cc(/C=C(/C#N)c2nc3ccccc3[nH]2)ccc1OCc1ccc(C(=O)O)o1	61µM*	-0.28	-0.22	0.29	1.2	-4.5%	0.0%	9.1µM*	2%
Cc1ccc(Nc2nc(N3CCOCC3)nc(N3CCOCC3)n2)cc1	4%	-0.28	-0.16	-0.35	-2	12%	-0.1%	-17%	7%

Limited to KOR agonists and AID2073, for some of the entries so far:
Compound	KOR agonists	AID2073
COc1ccc(-c2nc(CS(=O)(=O)CC(=O)NCCc3cc(OC)ccc3OC)c(C)o2)cc1	0.6%	1%
COc1cc(OC)nc(Oc2ccccc2C(=O)Oc2cccc(C)c2)n1	1.4%	20%
Cc1cc2c(ncn2Cc2ccccc2)c([N+](=O)[O-])c1C	2.2%	3%
CC(=O)n1cc(/C=N/NC(=O)c2sc(C)nc2C)c2ccccc21	0.0%	2%

Next section
SMILES	P. falciparum M1AAP	Dynein transport	Dynein transport cytoplasmic EGFP	Dynein transport nuclear GR-EGFP	Dynein transport cell count	KOR agonists	GPR55 beta-arrestin	M17LAP inhibition	AID2073
CC(C)OCCCn1c(=S)[nH]c2ccc(N3CCOCC3)cc2c1=O	7%	1.1	-0.12	1.1	-0.61	1.6%	-0.1%	-13%	-4%
Cc1cc2n(n1)SC(Nc1ccccc1)N2 (stereo unspecified)	13%	-0.38	0.17	-0.12	0.22	3.5%	-0.1%	13%	-5%
FC(F)(F)c1cc(-c2ccccc2)nc(N2CCOCC2)n1	2%	0.17	-0.25	-0.84	0.9	0.4%	-0.1%	-3%	4%
CCCc1cc(C(=O)Cc2nc3ccccc3s2)c(O)cc1O	14%	0.76	0.048	-0.12	-0.9	-0.2%	-0.1%	-16%	-13%
O=[N+]([O-])c1ccc(N2CCCCCC2)c(S(=O)(=O)N2CCCCC2)c1	3%	-0.14	-0.22	-0.19	-0.024	-0.3%	-0.1%	-6%	-5%
O=C1c2ccccc2NC(c2ccncc2)N1c1ccccn1 (stereo unspecified)	8%	-0.33	-0.19	-0.26	0.57	0.9%	-0.1%	-157%	37%
COc1ccccc1/C=N/NC(=O)CC(=O)Nc1ccc(Cl)c(Cl)c1	10%	0.015	-0.22	0.57	-0.21	1.6%	0.0%	-8%	27%
CC(Sc1ncnc2ccccc12)C(=O)Nc1ccc2c(c1)OCO2 (stereo unspecified)	2%	-0.14	0.0046	0.77	0.0016	-0.1%	0.0%	6%	8%
O=C(Cn1cncn1)NCc1ccccc1Br	-2%	-0.32	-0.19	-0.72	-0.69	4.6%	-0.1%	-5%	-2%
Cc1oc(-c2cccc(Cl)c2)[n+]([O-])c1C	3%	0.29	-0.087	-0.047	0.34	5.2%	-0.1%	-6%	18%
O=S(=O)(NCCOCC(F)(F)F)c1ccc2oc3ccccc3c2c1	-8%	-0.86	0.064	-0.053	1.1	2.7%	0.0%	17%	38%
Cc1ccc(-c2nc3ccccc3[nH]2)cc1NC(=O)c1sc2ccccc2c1Cl	13%	-0.53	-0.16	-0.59	2	-1.1%	0.2%	6%	26%
COc1cc2cc(CN(CCCO)S(=O)(=O)c3ccccc3Cl)c(=O)[nH]c2cc1OC	13%	1.4	0.31	1.2	-2.1	-1.8%	0.0%	-18%	0%
COC(=O)c1ccc(CNC(=O)CSc2nc3sc(C)c(C)c3c(=O)n2C)o1	10%	-0.042	-0.26	0.3	0.53	1.1%	0.0%	9%	0%
Cc1ccc(C(=O)OCCc2c(C)[nH]n(-c3ccccc3)c2=O)cc1	5%	-0.47	-0.14	-0.41	-1.4	1.5%	0.1%	6%	8%
COc1ccc(C2NC(=O)c3sc4nc(C)c(C(C)=O)c(-c5ccc(Cl)cc5)c4c3N2)cc1 (stereo unspecified)	0%	1.9	-0.19	2.4	-0.94	-2.1%	0.0%	-5%	49%
CCC(CC)C(=O)N(c1ccc(F)cc1)C1C=CS(=O)(=O)C1 (stereo unspecified)	9%	-0.31	-0.19	0.072	0.59	-2.8%	0.4%	4%	2%
Cc1cc([N+](=O)[O-])nn1CC(=O)NNC(=S)Nc1ccc([N+](=O)[O-])cc1	1%	0.7	0.29	1.2	0.014	1.3%	0.6%	34%	-14%
Cc1c(C(=O)Nc2ccc(OC(F)(F)F)cc2)sc2nc3n(c(=O)c12)CCC3	8%	-0.025	-0.31	0.15	-0.34	-3.0%	0.0%	-10%	18%
CC(C)CN(C(=O)COC(=O)c1cc2ccccc2oc1=O)C1CCS(=O)(=O)C1 (stereo unspecified)	5%	0.76	-0.21	0.86	0.28	4.4%	0.3%	4%	-5%
CCOc1cc(NC(=S)Nc2cccc(OC)c2)c(OCC)cc1NC(=O)c1ccc(C)cc1	15%	-0.61	-0.2	-0.068	0.53	0.5%	-0.1%	1%	-13%
NCCCCCc1nnc(SCc2ccc(Cl)c(Cl)c2)o1	8%	11	3.6	4.6	-5.2	1.1%	-0.2%	-8%	2%
O=C(Cn1cccc1)NCc1cccs1	9%	1.1	0.41	1.1	-2	16%	-0.1%	8%	0%
Cc1onc(-c2ccccc2Cl)c1C(=O)NCc1cccs1	5%	-0.98	-0.41	-0.38	0.11	-2.6%	0.0%	18%	-6%
Cc1ccc(C(=O)C2(C)C3c4cc(Br)ccc4OC(=O)C32C(=O)c2ccco2)cc1 (stereo unspecified)	4%	-0.68	-0.14	-0.95	0.95	3.3%	0.0%	1%	10%
COn1c(SCc2ccc(Cl)cc2)nc2ccccc2c1=O	7%	-0.98	-0.24	-1.1	0.35	0.8%	-0.1%	7%	12%
CCOC(=O)N1CCN(c2cc(N)c([N+](=O)[O-])cc2F)CC1	17%	-1.1	0.03	-0.73	1.2	-1.5%	0.2%	-1%	-6%
COc1cc(CNCCO)cc(Br)c1OCc1ccccc1Cl	5%	0.37	-0.17	0.0077	0.21	5.2%	0.2%	-2%	-2%
O=C(NNC(=O)C1COc2ccccc2O1)c1ccccc1 (stereo unspecified)	0%	0.71	-0.25	0.93	1.2	-3.2%	-0.1%	29%	44%

Reformatted: entries from further up.
mol: COc1ccc(C2NC(=O)c3sc4nc(C)c(C(C)=O)c(-c5ccc(Cl)cc5)c4c3N2)cc1 (stereo unspecified)
  P. falciparum M1AAP: 0%; Dynein transport: 1.9; Dynein transport cytoplasmic EGFP: -0.19; Dynein transport nuclear GR-EGFP: 2.4; Dynein transport cell count: -0.94; KOR agonists: -2.1%; GPR55 beta-arrestin: 0.0%; M17LAP inhibition: -5%; AID2073: 49%
mol: CCC(CC)C(=O)N(c1ccc(F)cc1)C1C=CS(=O)(=O)C1 (stereo unspecified)
  P. falciparum M1AAP: 9%; Dynein transport: -0.31; Dynein transport cytoplasmic EGFP: -0.19; Dynein transport nuclear GR-EGFP: 0.072; Dynein transport cell count: 0.59; KOR agonists: -2.8%; GPR55 beta-arrestin: 0.4%; M17LAP inhibition: 4%; AID2073: 2%
mol: Cc1cc([N+](=O)[O-])nn1CC(=O)NNC(=S)Nc1ccc([N+](=O)[O-])cc1
  P. falciparum M1AAP: 1%; Dynein transport: 0.7; Dynein transport cytoplasmic EGFP: 0.29; Dynein transport nuclear GR-EGFP: 1.2; Dynein transport cell count: 0.014; KOR agonists: 1.3%; GPR55 beta-arrestin: 0.6%; M17LAP inhibition: 34%; AID2073: -14%

This is a subset; rates above refer to the full screens.
